KCNQ2 block – KCNQ2 potassium channel inhibitors, primary screen, cell-based, CHO-K1, FluxOR thallium flux, B-score (AID 2156); Potassium voltage-gated channel subfamily KQT member 2 (Rattus norvegicus), O88943; 20 min; stronger effect = lower value; only compounds with negative scores are shown here; some inactives read as strong as hits; B-score at 10 µM; 310,000 compounds, 1.1% hits;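 active = fluorescence ratio B-score at most minus 3 library SDs, with starting brightness B-score within 2 library SDs, cut at about -5.5 in these data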
Target sequence (O88943 whole entry, looked up): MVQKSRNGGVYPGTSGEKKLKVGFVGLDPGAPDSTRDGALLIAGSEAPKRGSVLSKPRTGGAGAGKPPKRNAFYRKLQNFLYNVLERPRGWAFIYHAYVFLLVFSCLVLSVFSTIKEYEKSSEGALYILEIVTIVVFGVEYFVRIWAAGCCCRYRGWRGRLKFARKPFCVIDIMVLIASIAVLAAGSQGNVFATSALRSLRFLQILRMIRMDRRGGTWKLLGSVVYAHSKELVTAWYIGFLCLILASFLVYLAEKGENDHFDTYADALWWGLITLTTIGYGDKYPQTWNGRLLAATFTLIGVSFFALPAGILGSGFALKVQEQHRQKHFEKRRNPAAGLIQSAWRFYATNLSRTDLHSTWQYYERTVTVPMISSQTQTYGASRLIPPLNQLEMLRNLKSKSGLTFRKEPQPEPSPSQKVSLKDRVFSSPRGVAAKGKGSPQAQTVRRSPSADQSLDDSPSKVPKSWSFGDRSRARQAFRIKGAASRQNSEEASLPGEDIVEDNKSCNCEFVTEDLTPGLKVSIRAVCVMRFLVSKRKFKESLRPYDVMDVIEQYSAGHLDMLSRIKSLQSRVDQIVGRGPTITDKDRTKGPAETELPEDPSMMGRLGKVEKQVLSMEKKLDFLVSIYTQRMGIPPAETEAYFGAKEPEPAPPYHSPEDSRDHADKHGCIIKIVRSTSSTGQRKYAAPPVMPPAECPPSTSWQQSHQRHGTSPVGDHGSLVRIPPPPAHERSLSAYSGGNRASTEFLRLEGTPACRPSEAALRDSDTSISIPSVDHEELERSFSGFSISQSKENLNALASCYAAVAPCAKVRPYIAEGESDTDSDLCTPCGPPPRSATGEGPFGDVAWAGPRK
KCNQ2 block baseline – second read-out of KCNQ2 block, no call of its own (marks repeat the call); B-score; measured here: initial fluorescence intensity artifact check;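 brightness before thallium and not channel activity; 0 = typical well and far values either way flag optical interference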
Active calls of the source: *; i = inactive. Not all compounds are listed; rates above refer to the full screens.

The opening 2 compounds (preview)
SMILES	KCNQ2 block	KCNQ2 block baseline
O=C(COC(=O)c1ccc(S(=O)(=O)Nc2ccccc2)cc1)NCC1CCCO1 (stereo unspecified)	i	-1.3
Cc1cccc(N2C(=O)CCC2=O)n1	i	0.4

The whole of this part, from the start:
SMILES	KCNQ2 block	KCNQ2 block baseline
O=C(COC(=O)c1ccc(S(=O)(=O)Nc2ccccc2)cc1)NCC1CCCO1 (stereo unspecified)	i	-1.3
Cc1cccc(N2C(=O)CCC2=O)n1	i	0.4
O=c1c([N+](=O)[O-])c(O)c2ccccc2n1Cc1ccccc1	i	-0.01
CN(C)c1ccc(NC(=O)/C=C/c2c(Cl)cccc2Cl)cc1	i	-0.13
CN1C(=O)CSc2ccc(NC(=O)N3CCc4ccccc43)cc21	i	1.5
COc1ccc(C(=O)NCc2nnc(SCC(=O)Nc3cc(Cl)ccc3OC)o2)cc1	i	0.84
CC1(NC(=O)Nc2ccccc2)CCS(=O)(=O)C1 (stereo unspecified)	i	1.6
COc1cccc(C=Nc2cc(C)on2)c1O	i	3.5
O=C(Nc1nnc(SCc2ccc(F)cc2)s1)c1cnccn1	i	-0.44
CC(NC(=O)CN1C(=O)NC(Cc2ccccc2)(Cc2ccccc2)C1=O)C12CC3CC(CC(C3)C1)C2 (stereo unspecified)	i	-0.09
COC(=O)CSc1nnc(-c2ccc(S(=O)(=O)N3CCCC3)cc2)o1	i	2.8
FC(F)(F)c1cccc(Sc2nc(-c3ccccc3)nnc2C(F)(F)F)c1	i	0.25
O=C(/C=C/c1ccccc1)NC1CC2CCC1C2 (stereo unspecified)	i	0.45
CC(=O)Nc1ccc(N(CC(=O)NC2CCCC2)C(=O)CCC(=O)Nc2cc(C)on2)cc1	i	0.19
Cc1csc(N/N=C/c2ccccn2)n1	i	-0.38

Entries of single compounds, quoted from the list. Order of values: KCNQ2 block | KCNQ2 block baseline
Cc1csc(N/N=C/c2ccccn2)n1 is listed with i | -0.38
CN(C)c1ccc(NC(=O)/C=C/c2c(Cl)cccc2Cl)cc1 is listed with i | -0.13

Later entries:
SMILES	KCNQ2 block	KCNQ2 block baseline
O=C1OC(c2ccccc2)=C/C1=C/c1cccs1	i	0.08
COc1cccc(NS(=O)(=O)c2ccc(C)c(C(=O)N3CCCCC3)c2)c1	i	-0.27
CC(C)(C)c1ccc(OCC(=O)Nc2ccncc2)cc1	i	0.09
Cc1cc(C2=NNC(=Nc3ccc(S(=O)(=O)N4CCOCC4)cc3)SC2)c(C)n1CC1CCCO1 (stereo unspecified)	i	-1.2
CCCSc1nc(NCc2ccco2)c2c3c(sc2n1)COC(C)(C)C3	-9.8*	-1.1*
Cc1cc(-c2ccccc2)nc(N/N=C/c2ccccc2F)n1	i	-0.9
CCC(C)c1ccc(S(=O)(=O)N2CCN3CCCC3C2)cc1 (stereo unspecified)	i	-0.8
Cc1cc(CSc2nc(C)cc(=O)[nH]2)c2ncccc2c1	i	0.07
Cc1c(C)c2c(c(C)c1O)CC[C@@](C)(CCC[C@H](C)CCC[C@H](C)CCCC(C)C)O2	i	-0.01
Cc1c(C(C)C)c(=O)n(-c2ccc(S(=O)(=O)NC3CC3)cc2)n1C	i	-0.8
Cc1cc(C)c(C)c(S(=O)(=O)N2CCN(c3ccccn3)CC2)c1C	i	0.77
CCOc1ccc(NC(=O)C2CC(C)=C(C)CC2C(=O)O)cc1 (stereo unspecified)	i	0.57
O=C(Cc1ccccc1)Nc1ccc(S(=O)(=O)N2CCCC2)cc1	i	1.6
O=C(N/N=C/c1ccc(Cl)cc1Cl)Nc1ccccc1	i	0.3
COc1ccc(CCNC2=NCC(C)S2)cc1 (stereo unspecified)	i	-2.5

Quoted from the listing:
Entry of Cc1csc(N/N=C/c2ccccn2)n1 under KCNQ2 block baseline: -0.38
Entry of CC(NC(=O)CN1C(=O)NC(Cc2ccccc2)(Cc2ccccc2)C1=O)C12CC3CC(CC(C3)C1)C2 (stereo unspecified) under KCNQ2 block baseline: -0.09

(further entries)
SMILES	KCNQ2 block	KCNQ2 block baseline
CC(=O)N1CCN(c2nnc(-c3ccccc3)c3ccccc23)CC1	i	0.36
O=C(NC(=S)N(CCO)Cc1ccccc1)c1ccc(F)cc1Cl	i	-0.02
CCOC(=O)c1c(NC(=O)CSc2nc3cc(Cl)ccc3c(=O)n2Cc2ccco2)sc(C(=O)N(C)C)c1C	i	0.23
Cc1cccc(-c2ncc(CN3CCCC(CO)(Cc4cccc(Cl)c4)C3)cn2)c1 (stereo unspecified)	i	-0.34
CCOC(=O)c1ccc(NC(=O)CC2SCCNC2=O)cc1 (stereo unspecified)	i	0.08
Cc1ccccc1NC(=O)CSCC(=O)Nc1ccccc1C	i	-0.41
CCCNC(=O)c1onc(CSc2ccc(Cl)cc2)c1C(=O)NCCC(C)C	i	0.17
CCN(CC)CCN1C(=O)C(=O)/C(=C(/O)c2ccc(OC(C)C)cc2)C1c1cccs1 (stereo unspecified)	i	1.5
CC(=O)c1ccc(NC(=O)c2ccc3snnc3c2)cc1	i	3.5
O=C(c1ccccc1)N1CCSC1=S	i	0.16
COc1cc2c(C(=O)NCCN(C)C)cn(CC(C)C)c(=O)c2cc1OC	i	-0.07
CCCOP(=O)(OCCC)C(Nc1ccc(C(C)C)cc1)c1ccc([N+](=O)[O-])cc1 (stereo unspecified)	i	-1
Cc1cc(/C=N/Nc2ccc([N+](=O)[O-])cn2)c(C)n1-c1ccccc1	i	3.1
O=C(CSc1nnc(NC(=O)c2cccc(Cl)c2)s1)NCC1CCCO1 (stereo unspecified)	i	2.1
Cc1ccc(S(=O)(=O)Cn2nnnc2CN2CCOCC2)cc1	i	1.4
COC(=O)CCC(=O)NC1CC(C)(C)Cc2c1cnn2-c1ccccc1 (stereo unspecified)	i	0.44
CCNc1ccc(C(=O)OCC(=O)N(Cc2ccccc2)C(C)(C)C)cc1[N+](=O)[O-]	i	1.3
CC(C)CC(=O)Nc1nnc(S(=O)(=O)N2CCCCCC2)s1	i	0.85
COc1cc(-c2nnc(SCC3(c4ccc(Br)cc4)OCCO3)o2)cc(OC)c1OC	i	0.05
CC(=O)N/C(=C\c1ccccc1)C(=O)OCc1ccccc1	i	-0.01
CC(C)(C)OC(=O)CC[C@@H](C(=O)N1CCN(C(=O)OC(C)(C)C)CC1)n1cc(C(CO)NC(=O)OC(C)(C)C)nn1 (stereo partly specified)	i	0.04
Nc1[nH]n(-c2ccccc2)c(=O)c1N=Nc1ccc2c(c1)OCCO2	i	-1.7
COc1ccnc(Oc2cc(Cl)cc(Cl)c2)c1C#N	i	0.49
COCCn1c(SCC(=O)c2ccc(F)cc2)nnc1C(C)C	i	-0.02
O=C(Cn1c(=O)c(=O)n(Cc2ccccc2)c2ccc(Cl)cc21)Nc1cccc(F)c1	i	0.62
O=C(NCc1cccc(C(F)(F)F)c1)C1CC(c2c(Cl)cccc2Cl)=NO1 (stereo unspecified)	i	-0.48
COc1ccc(NC(=S)N2CCC(Cc3ccccc3)CC2)cc1OC	i	1.1
COc1cc(C(=S)N2CCOCC2)ccc1OS(=O)(=O)c1ccc(Cl)cc1	i	1
CCOc1ccc(NC(=O)N(CCN2CCOCC2)Cc2ccc3c(c2)CCCN3CC)cc1	i	0.59
ClCc1csc(-c2ccccc2Cl)n1	i	-0.23
Cc1ccc(/C=C/c2onc(C)c2S(=O)(=O)N2CCC(C(=O)N3CCN(C)CC3)CC2)cc1	i	0.06
CCCCCCSc1ccc([C@H]2N[C@@](C)(C(=O)OC)[C@H]3C(=O)N(C)C(=O)[C@@H]23)cc1	i	-0.28
COc1ccccc1Nc1ccc(NS(=O)(=O)c2ccc(C(C)=O)cc2)cc1	i	1.5
CCOC(=O)c1ccc(S(=O)(=O)N2CCC(C(=O)O)CC2)cc1	i	-1.2
O=C(O)CCC(=O)N1CCc2cc(S(=O)(=O)N(CCc3ccccc3)Cc3ccccc3)ccc21	i	-2
S=C(Nc1ccc2nc(-c3ccccn3)c(-c3ccccn3)nc2c1)N1CCOCC1	i	0.03
O=C1CN(C(=O)c2cc([N+](=O)[O-])ccc2Cl)C(c2ccc(F)cc2)c2cc(F)ccc2N1 (stereo unspecified)	i	-0.25
CC(C)CCNC(=O)C1CCCN(S(=O)(=O)c2ccc(-n3cnnn3)cc2)C1 (stereo unspecified)	i	-0.25
CCc1nc(N2CCCCC2)c2oc3ccccc3c2n1	i	-1.7
CCCCOc1ccc(C2(C(=O)O)CCCC2)cc1	i	-1.8
Cc1cccc(C)c1NC(=O)CN(C)C(=O)CSC(=S)N1CCCC1	i	0.02
COc1ccc(CN(C)C(=O)C23CC4CC(CC(C4)C2)C3)c(OC)c1	i	-0.2
C[n+]1cccc(CNC(=O)/C=N/O)c1	i	2.1
CCn1cc(C(=O)N2CCN(c3ccccc3OC)CC2)c2cc(OC)c(OC)cc2c1=O	i	0.06
Cc1ccc(/C=C/C(=O)NCCCN2CCN(CCCNC(=O)/C=C/c3ccc(C)cc3)CC2)cc1	i	-0.03
COc1ccc(OC(C)C(=O)N(C)Cc2nc(-c3ccc(C)cc3)no2)cc1 (stereo unspecified)	i	1.7
Cc1ccc(C)n1-c1sc2c(c1C(=O)O)CCCC2	i	0.16
COc1cccc(OC)c1C(=O)NN1CCCCC1	i	2.1
O=[N+]([O-])c1ccc(Nc2ccc(F)cc2)cc1	i	-0.86
COc1ccc(-c2csc(NC(C)=O)n2)cc1OC	i	2.7
COc1ccc(C2(C(=O)Nc3c(C)n(C)n(-c4ccccc4)c3=O)CCCC2)cc1OC	i	0.41
Cc1cc(C(=O)N2CCN(Cc3ccc4c(c3)OCO4)CC2)cs1	i	0.83
Cc1ccc(/C=N/NC(=O)c2cccc3ccccc23)o1	i	-1
CC1(c2ccccc2)NC(=O)N(NC(=O)CSc2n[nH]c(N)n2)C1=O (stereo unspecified)	i	0.01
O=C(Nc1nnc(SCC(=O)N2CCCCC2)s1)c1c(F)cccc1F	i	0.11
O=C1CCc2cc(S(=O)(=O)N3CCN(C(=O)c4ccco4)CC3)ccc2N1	i	0.67
CCN(CC(=O)NC)S(=O)(=O)c1ccc(C)cc1	i	-0.66
N#C/C(=C\c1cn(Cc2ccccc2C#N)c2ccccc12)C(=O)NCc1cccs1	i	0.75
CC(C)c1nc2cc(C(=O)NC(c3cccnc3)C(F)(F)F)ccc2o1 (stereo unspecified)	i	1.5
N#Cc1cc(-c2ccc(Cl)cc2)cnc1Sc1ccc(F)cc1	i	-0.52
The list continues.
SMILES	KCNQ2 block	KCNQ2 block baseline
CN(C)/C=C/C(=O)c1ccc(OCCN(C)c2ccccn2)cc1	i	-1.7
COC(=O)c1cc(S(=O)(=O)NCC2CCN(Cc3cccc(Cl)c3)CC2)c[nH]1	i	-1.2
Cc1cc(-c2ccccc2)nc(N(C)N)c1S(C)(=O)=O	i	0.77
Cc1ccc(C)c(S(=O)(=O)NCc2ccc(C(=O)N3CCC(Cc4ccccc4)CC3)cc2)c1	i	1.7
O=C(COc1ccc(-c2ccccc2)cc1)N/N=C/c1ccccc1Br	i	-0.38
O=C(CSc1nnc(-c2ccc(S(=O)(=O)N3CCCC3)cc2)o1)NCc1ccco1	i	-0.31
Cc1ccc(C2=NOC(C)(c3nnc(-c4ccc(F)cc4)o3)C2)cc1 (stereo unspecified)	i	0.14
CC1Cc2ccccc2N1C(=O)CSc1nnnn1-c1ccc2c(c1)OCCO2 (stereo unspecified)	i	0.55
N#Cc1nc(Cc2ccccc2)oc1NCCCn1ccnc1	i	5.2
CCCCN(C(=O)CSc1nncn1-c1ccccc1)c1c(N)n(Cc2ccccc2)c(=O)[nH]c1=O	i	1.3
N#Cc1ccc(/C=N/NC(=O)c2cccc(S(=O)(=O)N3CCOCC3)c2)cc1	i	-0.7
CC(=O)n1cc(N(C(=O)CCl)c2ccc([N+](=O)[O-])cc2)c2ccccc21	i	-0.35
O=C(COc1ccc(Br)cc1)N(Cc1ccco1)C1CCS(=O)(=O)C1 (stereo unspecified)	i	-0.54
O=C(C1CCCCC1)N1CCCn2c1nc1ccccc12	i	0.68
COc1ccc(CCNCc2ccc(OCc3ccccc3)cc2)cc1	i	0.02
CC(C)OC(=O)CSc1nnc(Cc2ccccc2)n1Cc1ccco1	i	-0.43
COCCn1c(SCC(=O)Nc2ccccc2OC)nc2ccccc21	i	0.02
CCOC(=O)c1oc2ccc(S(=O)(=O)n3nc(-c4ccc(C)cc4)cc3N)cc2c1C	i	1.4
CCOC(=O)C1(CC2CC2)CCN(C(=O)c2cc(C)nc3ccc(CC)cc23)CC1	i	-2.1
Cc1nc(COC(=O)c2ccc(S(=O)(=O)N3CCCC3)cc2)cs1	i	1.8
COc1ccc(-n2ncc3c(N4CCN(Cc5ccccc5)CC4)ncnc32)cc1	i	-0.25
CCCn1c(C(CO)Nc2nc(-c3cccc(Br)c3)cs2)nc2ccccc21 (stereo unspecified)	i	-0.54
Cc1ccc2oc(=O)c3cc(C(=O)NCCCN4CCCCCC4)sc3c2c1	i	0.93
COc1ccc(NC(=O)CN(C)C(=O)c2cc(-c3ccc(C)o3)nc3ccccc23)cc1	i	-1.6
CCNC(=O)COc1ccc(-c2ccccc2)cc1	i	1.5
Cc1ccc(S(=O)(=O)NC(CC(=O)N2CCOCC2)c2ccco2)cc1 (stereo unspecified)	i	0.2
Cc1ccc(S(=O)(=O)N2CCN(CC(=O)N/N=C/c3cc([N+](=O)[O-])ccc3Cl)CC2)cc1	i	-0.31
O=C(O)CSCC(=O)Nc1cccc(C(F)(F)F)c1	i	0.52
CC1CC1C(=O)OCC(=O)Nc1ccc2[nH]c(=O)[nH]c2c1 (stereo unspecified)	i	0.57

4 entries from above, sorted by count of non-hydrogen atoms, descending.
SMILES	KCNQ2 block	KCNQ2 block baseline
CCOC(=O)c1oc2ccc(S(=O)(=O)n3nc(-c4ccc(C)cc4)cc3N)cc2c1C	i	1.4
Cc1ccc2oc(=O)c3cc(C(=O)NCCCN4CCCCCC4)sc3c2c1	i	0.93
COCCn1c(SCC(=O)Nc2ccccc2OC)nc2ccccc21	i	0.02
CC1CC1C(=O)OCC(=O)Nc1ccc2[nH]c(=O)[nH]c2c1 (stereo unspecified)	i	0.57
